# Mtb growth: Mycobacterium tuberculosis H37Rv growth inhibition, cell based, confirmatory dose response (AID 1949). inhibition, % at 10 µg/mL, or IC50 in µg/mL where a hit was titrated. most inactive calls were filed without a number and no value below 0 was filed. 100,000 tested, 1.6% active;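 active = confirmed in a dose series; inconclusive = about 50% or more but not retested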;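 note: bacteria grown 7 days with compound before Alamar blue readout; 0% = untreated bacteria and 100% = reference antibiotic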
# * = called active by the depositor; i = inactive; ? = inconclusive.
SMILES | Mtb growth
CCc1cccc(C)c1NC(=O)C1CC(=O)N(c2ccc(F)cc2)C1 (stereo not given) | i
CC(C)c1ccc(OCC(=O)Nc2ccc(S(=O)(=O)N3CCOCC3)cc2)cc1 | i
CCOC(=O)CCc1c(C)nc(/N=C(\N)Nc2ccc(OCC)cc2)[nH]c1=O | 0.4%
CCCc1nc2ccc(I)cc2c(=O)n1-c1ccccc1Cl | 7.9%
CS(=O)(=O)N(CCc1ccccc1)CC(=O)N1CCOCC1 | i
Cc1ccc(C)c(OCC(=O)Nc2ccc(S(=O)(=O)NC(C)(C)C)cc2)c1 | i
COc1ccc(-n2ncc3c(N4CCN(c5ccccc5)CC4)ncnc32)cc1 | 2.7%
COc1ccc(NC(=O)CCC(=O)c2ccc(C)c(C)c2)cc1 | i
CCCN(CCC)S(=O)(=O)c1ccc(C(=O)Nc2cc(OC)cc3cccnc23)cc1 | i
COc1ccc(S(=O)(=O)N(Cc2ccccc2)c2ccc(C)cc2)cc1OC | i
COc1ccc(NC(=O)c2ccccc2NC(=O)Cc2ccc(OC)c(OC)c2)cc1 | i
N#Cc1c(NC(=O)c2ccc(Cn3cc(Br)cn3)o2)sc2c1CCCCCC2 | i
O=C(Nc1ccc2c(c1)OCCO2)c1ccc(CN2CCc3ccccc3C2)cc1 | i
COc1ccc2nc(/C(C#N)=C\c3ccc4c(c3)n(C)c(=O)n4C)[nH]c2c1 | i
CCN(CC)C(=O)CSc1nc(N)c2c3c(sc2n1)COC(C)(CC)C3 (stereo not given) | 3.7%
O=C1OC(c2c(O)n(-c3ccc(Br)cc3)c(=O)[nH]c2=O)c2ccccc21 (stereo not given) | 6.2%
CCCc1ccccc1OCCNS(=O)(=O)c1ccc(CCNC(C)=O)cc1 | i
CC(C)CNc1nc(Oc2ccc(=O)[nH]n2)nc(N2CCOCC2)n1 | i
CCOc1ccc(OCCCn2cnc3ccccc3c2=O)cc1 | 3.4%
NC(=O)c1c(NC(=O)c2ccccc2F)sc2c1CCCC2 | 8.4%
Cc1sc2nc(SCC(=O)OC(C)C)n(Cc3ccco3)c(=O)c2c1C | i
O=C(Nc1nnc(CSCc2ccc(Cl)cc2)s1)c1cccs1 | 0.4%
CCOC(=O)c1ccc(NC(=O)N2CCCCCC2)cc1 | i
CS(=O)(=O)N(CC(=O)N1CCCC1)c1ccc(Cl)c(C(F)(F)F)c1 | i
CC1=NC(C(F)(F)F)(C(F)(F)F)c2c(n(-c3ccc(C)c(C)c3)c(=O)[nH]c2=O)N1 | 1.5%
CC1=C(C(=O)OC(C)C)C(c2cccs2)C2=C(CC(c3ccccc3)CC2=O)N1 (stereo not given) | ?
Fc1cccc(Cn2cc(C(=S)N3CCCC3)c3ccccc32)c1 | i
O=[N+]([O-])c1c(Sc2ncnc3ccccc23)ccc2nsnc12 | 22.2µg/mL*
CN(C)CCCOc1cccc(Oc2ccccc2)c1 | i
Cc1cc(-c2nc3cc(N)ccc3o2)ccc1Br | i
O=C(Cc1cccs1)NNC(=S)NCc1ccco1 | i
CCOC(=O)c1ccc(COC(=O)c2ccc(CNc3ccccc3C)cc2)cc1 | i
O=C(OCc1ccc(Cl)cc1)c1ccc(Br)cc1 | i
CCC(=O)NC(=S)Nc1ccc(NC(=O)c2ccc(Br)o2)cc1 | ?
COc1ccc(Cc2nnc(NC(=O)C(Cl)(Cl)Cl)s2)cc1 | i
CCN(CC)C(=O)c1ccc(NC(=O)Cn2nc(C)c3ccccc3c2=O)cc1 | i
O=C(Nc1ccc(I)cc1C(F)(F)F)c1cccc(OCc2ccccc2)c1 | i
O=C(Nc1ccc2nc(SCC(=O)N3CCCC3)sc2c1)c1ccc(Cl)cc1 | 3.5%
COc1cc(S(=O)(=O)N2CCN(c3cccc(C(F)(F)F)c3)CC2)ccc1Cl | 3.6%
COc1ccc([N+](=O)[O-])cc1NC(=O)C(C)Sc1ccccc1 (stereo not given) | i
CC(=O)c1cccc(NC(=O)Nc2cnccn2)c1 | i
Cc1ccc2oc(=O)n(CCOc3ccccc3Cl)c2c1 | i
Cc1ccc(S(=O)(=O)Nc2cc(C)on2)cc1 | i
COc1cc(NC(=O)c2cccc([N+](=O)[O-])c2)ccc1NC(C)=O | i
O=C(COc1cccc(NC(=O)c2ccccc2)c1)NCCOc1ccccc1 | 4.1%
O=C(O)c1cc(NC(=S)NC(=O)c2cc(I)ccc2Cl)ccc1Cl | i
CC(C)c1ccccc1NC(=O)c1ccc(I)cc1 | 1.5%
Cc1cc(C)cc(C(=O)Nc2cccc3ccccc23)c1 | 0.8%
CC(C)Cc1ccc(S(=O)(=O)Nc2ccc(C(N)=O)cc2)cc1 | 1.9%
Nc1nncn1C(=O)c1ccccc1I | i
CCO/C=N/c1c(C#N)c(CC#N)nn1-c1ccccc1 | i
CC1=C(C(=O)Nc2ccccc2)C(c2cccs2)NC(=O)N1 (stereo not given) | 0.8%
CCCCC(=O)Nc1cc(NC(=O)CC)ccc1Cl | i
CCOC(=O)c1ccc(NC(=O)CC2SC(=Nc3ccc(S(N)(=O)=O)cc3)NC2=O)cc1 (stereo not given) | i
COC(=O)c1ccc(COc2ccc3c(=O)c(-c4ccccc4)coc3c2)cc1 | 0.9%
CC(=O)Nc1cccc(NC(=S)Nc2ccc(F)c(Cl)c2)c1 | ?
O=C(CC1Sc2ccc(Cl)cc2NC1=O)Nc1ccc([N+](=O)[O-])cc1 (stereo not given) | 2.53µg/mL*
Cc1cc(=O)n(-c2ccccc2)n1-c1ccccc1 | i
COc1ccc(CCNC(=S)Nc2cccc(Cn3cc(Cl)cn3)c2)cc1OC | i
Cc1cc(C(=O)O)c(NC(=O)c2ccccc2Cl)s1 | i

# 3 neighbouring compounds out of the list so far, for reference:
SMILES | Mtb growth
O=C(Cc1cccs1)NNC(=S)NCc1ccco1 | i
CCOC(=O)c1ccc(COC(=O)c2ccc(CNc3ccccc3C)cc2)cc1 | i
O=C(OCc1ccc(Cl)cc1)c1ccc(Br)cc1 | i

# The listing picks up, starting five compounds before the break.
SMILES | Mtb growth
CC(=O)Nc1cccc(NC(=S)Nc2ccc(F)c(Cl)c2)c1 | ?
O=C(CC1Sc2ccc(Cl)cc2NC1=O)Nc1ccc([N+](=O)[O-])cc1 (stereo not given) | 2.53µg/mL*
Cc1cc(=O)n(-c2ccccc2)n1-c1ccccc1 | i
COc1ccc(CCNC(=S)Nc2cccc(Cn3cc(Cl)cn3)c2)cc1OC | i
Cc1cc(C(=O)O)c(NC(=O)c2ccccc2Cl)s1 | i
COc1ccc(CCNC(=S)Nc2ccccc2Cl)cc1OC | i
CC(NC(=O)c1ccc(Cl)c(Cl)c1)c1nnc(SCC(=O)Nc2cccc(Cl)c2Cl)n1C (stereo not given) | i
C=CCNC(=O)COc1c(C)ccc(C)c1C | i
COc1cc(NC(=O)CN(C)S(=O)(=O)c2ccc(Br)cc2)c(OC)cc1Cl | i
Cc1ccc(NC(=O)CNS(=O)(=O)c2ccc(F)cc2)c(C)c1 | i
CN1CCN(c2ccc(NC(=S)NC(=O)c3ccc(-c4cccc(Cl)c4)o3)cc2)CC1 | 0.38µg/mL*
O=C(CSc1ccc(Cl)cc1)NCC1CCCO1 (stereo not given) | i
Cc1ccc([N+](=O)[O-])cc1NC(=O)c1c(-c2c(Cl)cccc2Cl)noc1C | i
CCn1c(CSCc2ccccc2)n[nH]c1=S | i
COC(=O)c1ccc(COC(=O)C(CCS(C)(=O)=O)N2C(=O)c3ccccc3C2=O)cc1 (stereo not given) | i
CCOc1ccccc1-n1c(SCC(=O)Nc2ccc(Br)cc2)nc(O)cc1=O | i
CCCCC(CC)CNC(=O)C(=O)NC1CC1 (stereo not given) | 0.6%
COc1cc(OC)cc(C(=O)N2CCCc3ccccc32)c1 | 2.1%
CC1=C(C(=O)Nc2ccccc2)C(c2c(Cl)cccc2Cl)NC(=S)N1 (stereo not given) | i
Cc1cc(=O)oc(C)c1C(=O)OCC(=O)c1ccc(OC(=O)c2ccccc2)cc1 | i
Cc1cc(C)cc(C(=O)Nc2cccnc2)c1 | 4.5%
S=C(NCc1ccncc1)Nc1ccc(Cl)c(Cl)c1 | ?
Cc1cc(C(=O)Nc2ccc(S(=O)(=O)N3CCCC3)cc2)cs1 | i
CC(C)NS(=O)(=O)c1ccc(OCC(=O)N2CCc3ccccc3C2)c(Cl)c1 | 2.8%
Cn1c(CSCc2ccccc2Cl)n[nH]c1=S | i
COc1cc(Cl)c(/C=C(/C#N)c2cccc(C)c2)cc1OC | 3.3%
CCC(=O)Nc1cccc(C(=O)c2ccccc2)c1 | 13.6%
COc1ccc(CCC(=O)Nc2nnc(C)s2)cc1 | i
CCOC(=O)C1=C(C)N=c2s/c(=C\c3cccs3)c(=O)n2C1c1cccc([N+](=O)[O-])c1 (stereo not given) | 2.1%
OC(c1ccccc1)c1nc2ccccc2n1Cc1cccc(Cl)c1 (stereo not given) | i
Cc1ccc(O)c(NC(=O)Cc2cccc3ccccc23)c1 | i
CCCCCNC(=O)CN(c1cc(Cl)ccc1C)S(=O)(=O)c1ccc(C)cc1 | i
COc1ccc(NC(=O)c2cc(-c3cccnc3)nc3c(C)c(C)ccc23)c(OC)c1 | i
Cc1cc(C)nc(NS(=O)(=O)c2ccc(CC(C)C)cc2)n1 | i
Nc1nnc(/C=C/c2cccc([N+](=O)[O-])c2)s1 | 5.0%
S=C(Nc1ccc(Oc2ccccc2)cc1)NN1CCOCC1 | i
COCC(=O)Nc1ccc(C(C)C)cc1 | i
COC(=O)c1sc(NC(=O)Cc2ccc(OC)c(OC)c2)c(C(=O)OC)c1C | 2.1%
Cn1nc(-c2ccc(C(=O)N3CCOCC3)cc2)c2ccccc2c1=O | i
CC1(C)Cc2nc3sc(C(=O)O)c(NC(=O)c4ccccc4)c3cc2CO1 | i
O=C(CCSc1nc2ccccc2o1)N1CCOCC1 | 2.6%
CC(Oc1cccc(Cl)c1)C(=O)N1CCCC1 (stereo not given) | i
C=C(C)COc1cc2oc(=O)cc(C)c2cc1Cl | i
COC(=O)Cc1ccc(NC(=O)c2cc(OC)c(OC)c(OC)c2)cc1 | i
CC(C(N)=O)N1C(=O)c2ccccc2C1=O (stereo not given) | i
COC(=O)c1ccc(C2NC(=S)NC(C)=C2C(N)=O)cc1 (stereo not given) | i
COc1cc(C2C(C#N)=C(SCC(=O)NC3CCCCC3)NC3=C2C(=O)CCC3)ccc1O (stereo not given) | i
CSc1cccc(NC(=O)CSc2nnc(-c3ccco3)n2C)c1 | i
O=C(Nc1cccc(-c2nc3ncccc3o2)c1)c1ccc(N2CCCCC2)c([N+](=O)[O-])c1 | 42.6%
CCCC(CCC)C(=O)Nc1ccccc1C(=O)O | 3.7%
COc1ccc(C(=O)NCc2nnc(SCC(=O)Nc3ccc(Br)c(C)c3)n2C)cc1OC | i
COCc1nc2ccccc2n1Cc1ccc(Br)cc1 | i
CC(C)NC(=O)c1ccc(-c2ccccc2C(F)(F)F)o1 | 1.0%
COC(=O)C1=C(C)Nc2nnnn2C1c1ccc([N+](=O)[O-])cc1 (stereo not given) | i
O=[N+]([O-])c1cnc(Sc2nnc(-c3ccc(Cl)cc3)n2-c2ccccc2)c(Br)c1 | 0.2%
S=C(NCc1ccc2c(c1)OCO2)Nc1ccc2nsnc2c1 | i
O=C1CCCC2=C1C(c1ccc(Cl)cc1)c1c(ccc3ccccc13)N2 (stereo not given) | ?
O=C(O)C1CCN(S(=O)(=O)c2ccc(F)cc2)CC1 | i
c1ccc(-c2ccc(OCCCCN3CCNCC3)cc2)cc1 | 3.5%
CCCOc1c(Cl)cc(C(=O)Nc2ccccc2F)cc1OCC | 22.1%
Cc1cc(Cl)cc(Cl)c1OCCOCCNC(C)(C)C | i
CCC(C)Sc1nc2c(c(=O)[nH]1)C(c1ccncc1)C1=C(CC(C)(C)CC1=O)N2 (stereo not given) | i
O=C1CCCN1c1ccc(S(=O)(=O)N2CCN(c3ccccn3)CC2)cc1 | i
Cc1ccc(CN(CC(=O)Nc2ccc3c(c2)OCCO3)S(=O)(=O)c2ccc(Cl)cc2)cc1 | i
COc1cc(Cl)c(C)cc1NC(=O)c1cccc(Br)c1 | 0.6%

# (more compounds)
SMILES | Mtb growth
COc1cc(C(=S)N2CCOCC2)cc(Br)c1OC(=O)c1ccc(Cl)cc1 | 0.8%
CC(C)(O)C#Cc1ccc(C(=O)N2CCC(C(O)(c3ccccc3)c3ccccc3)CC2)cc1 | i
C=C1C2(C(=O)Nc3cccc(Cl)c3)CCC(C2)C1(C)C (stereo not given) | 5.1%
COc1ccc(N2CCN(S(=O)(=O)c3cccc4cccnc34)CC2)cc1 | i
Cc1ccc(-c2[nH]c(-c3ccc([N+](=O)[O-])cc3)nc2-c2ccccc2)cc1 | 7.13µg/mL*
C=CCn1c(SCC(=O)Nc2cccc(C)c2)nnc1-c1ccccc1O | i
Cc1cccc(OCC(=O)NC(=S)Nc2ccccc2N2CCOCC2)c1 | i
Cc1ccc(-n2c(SCc3ccccc3)nc(O)cc2=O)cc1 | i
COc1c(C)cccc1C(=O)N1CCN(c2ncccn2)CC1 | i
O=C(CSc1nc2ccccc2[nH]1)N(c1ccccc1)c1ccccc1 | i
CCn1c(SCc2ccccc2)nnc1-c1ccncc1 | i
C=CCN(CC=C)C(=O)c1cccc(C)c1[N+](=O)[O-] | i
O=C(CSc1nnnn1C1CCCCC1)N1CCCCC1 | i
O=C(CC(Nc1ccc(F)cc1)c1ccccc1)c1ccccc1 (stereo not given) | 9.26µg/mL*
COc1ccccc1Oc1c(C)oc2cc(OC(=O)c3ccco3)ccc2c1=O | 1.6%
O=C(O)C1CCCCC1C(=O)N1CC=C(c2ccccc2)CC1 (stereo not given) | i
COc1cc(C2Nc3cc(C)c(C)cc3NC3=C2C(=O)CC(C)(C)C3)cc(OC)c1OC (stereo not given) | i
S=C(NCC1CCCO1)NC12CC3CC(CC(C3)C1)C2 (stereo not given) | i

# Some of the compounds tested, so the mix of outcomes need not match the whole.
